Screens (PubChem)
Kir21 block – inhibitors of mouse Kir2.1 inward-rectifier potassium channel | AID 1672, 2009 | B-score at 10 µM | 0.85% of 310,000 active | HEK293-Kir2.1, FluxOR thallium flux fluorescence; hits give low values | Inward rectifier potassium channel 2 (Mus musculus), P35561;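 active = fluorescence ratio B-score at or below minus 3 SD of library scores, with starting-brightness B-score within 2 SD, cut at about -4.2 in these data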;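 also: channel flux triggered by added potassium and thallium sulfate stimulus; B-score of peak minus minimum fluorescence over baseline after thallium stimulus; more negative B-score means stronger Kir2.1 block with less thallium influx; some compounds called inactive have numbers as strong as hits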
Target sequence (P35561 whole entry, looked up): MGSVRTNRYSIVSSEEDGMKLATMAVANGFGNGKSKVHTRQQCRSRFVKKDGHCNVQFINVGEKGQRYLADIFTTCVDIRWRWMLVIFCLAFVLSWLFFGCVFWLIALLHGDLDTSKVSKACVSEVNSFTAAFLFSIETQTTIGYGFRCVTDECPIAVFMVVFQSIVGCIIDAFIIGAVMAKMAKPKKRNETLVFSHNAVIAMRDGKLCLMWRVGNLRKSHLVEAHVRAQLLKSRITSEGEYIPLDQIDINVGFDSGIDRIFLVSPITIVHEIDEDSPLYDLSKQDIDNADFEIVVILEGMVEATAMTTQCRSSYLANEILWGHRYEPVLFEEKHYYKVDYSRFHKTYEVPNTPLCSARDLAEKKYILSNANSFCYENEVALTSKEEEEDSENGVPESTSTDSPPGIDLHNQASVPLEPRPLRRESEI
The depositor's hits bear a star; & = joins results of further samples.

1. N=c1ccccn1Cc1ccccc1
- Kir21 block: -0.52
2. Nc1c(C(=O)NCCN2CCOCC2)c2nc3ccccc3nc2n1Cc1ccco1
- Kir21 block: 1.5
3. CC(Cl)(Cl)/C(=N/P(=S)(N1CCOCC1)N1CCOCC1)N1CCOCC1
- Kir21 block: 3.25
4. O=C1CSC2N1CCNC21CCCCC1 (configuration not stated)
- Kir21 block: 1.34
5. C[n+]1ccc(-c2ccncc2)cc1
- Kir21 block: -1.71
6. O=C1NC(=O)N(Cc2ccccc2)C(=O)/C1=C/C=C/c1ccco1
- Kir21 block: 0.27
7. CC(=O)NC(Cc1ccc(N(CCCl)CCCl)cc1)C(=O)NCC(=O)NCC(=O)O (configuration not stated)
- Kir21 block: -2.05
8. O=C1NC(=O)N(CCC2=CCCCC2)C(=O)/C1=C/c1ccc(O)cc1
- Kir21 block: -0.68
9. CN(Cc1ccccc1)C1CCCN(C(=O)COc2ccccc2Cl)C1 (configuration not stated)
- Kir21 block: -2.53
10. Cc1ccc(CN2C(=O)NC(=O)C3(Cc4c(nc5ccccn5c4=O)N4CCCCCC43)C2=O)cc1 (configuration not stated)
- Kir21 block: -0.12
11. COc1ccc(NC(=O)c2cn(CCC#N)nc2-c2ccccc2)cc1
- Kir21 block: -0.5
12. COC(=O)c1ccc(NC(=O)CSc2nc3ccc(N4C(=O)C5C6C=CC(C6)C5C4=O)cc3s2)cc1 (configuration not stated)
- Kir21 block: 0.09
13. O=C(COc1ccccc1)Nc1ccc(Cl)cc1C(=O)c1ccccc1
- Kir21 block: 0.81
14. O=C(CCCC1=NS(=O)(=O)c2ccccc2N1)N1CCC2(CC1)OCCO2
- Kir21 block: -0.22
15. CCC(=NCCCn1ccnc1)c1c(O)n(-c2ccc(OC)cc2)c(=O)[nH]c1=O
- Kir21 block: -1.49

16. N=c1c[n+](C2CCCCC2)[n-]o1
- Kir21 block: -0.01
17. CC[C@]12C=CCN3CCC4(c5cc(Br)c(OC)cc5N(C)C4[C@@](O)(C(=O)OC)[C@@H]1OC(C)=O)C32 (some centres not stated)
- Kir21 block: -1.38
18. O=C1NC(=O)N(c2ccccc2F)C(=O)/C1=C/c1ccc(Oc2ccc([N+](=O)[O-])cn2)cc1
- Kir21 block: 0.47
19. CC(C)C/C(=N/O)c1cn(C)c2ccccc12
- Kir21 block: 0.14
20. c1ccc(-n2ccnc2)cc1
- Kir21 block: 0.52
21. CC(=O)OC1N=C(c2ccc(Cl)cc2)c2cc(Br)ccc2NC1=O (configuration not stated)
- Kir21 block: 0.68
22. OCCN(CC#CC(O)(c1ccccc1)C1CCCC1)CCO (configuration not stated)
- Kir21 block: 1.07
23. CCC(=O)c1c(O)n(C2CCCCCC2)c(=O)[nH]c1=O
- Kir21 block: -0.59
24. CN(C)CCN=Cc1c(O)n(CCC2=CCCCC2)c(=O)[nH]c1=O
- Kir21 block: -2.16
25. CCn1c(C)cc(/C=C2\C(=O)NC(=O)N(c3ccccc3C)C2=O)c1C
- Kir21 block: -0.53
26. COc1ccc(C(=O)OC2CC3CCC(C2)[N+]3(C)[O-])cc1OC (configuration not stated)
- Kir21 block: -0.17
27. C[C@]12CC[C@@H](O)C[C@@H]1CC[C@@H]1[C@@H]2CC[C@]2(C)[C@@H](O)CC[C@@H]12
- Kir21 block: -0.26
28. O=C(c1sc2ccccc2c1Cl)N1CCC2(CC1)OCCO2
- Kir21 block: 2.4
29. O=c1[nH]c(=O)n(Cc2ccco2)c(O)c1C=NC1CCN(Cc2ccccc2)CC1
- Kir21 block: -1.56
30. CCc1c(C(=O)NN2C(=O)C3C4CCC(O4)C3C2=O)csc1C (configuration not stated)
- Kir21 block: 0.04

The final two entries of the section above open the next one.
item	SMILES	Kir21 block
29	O=c1[nH]c(=O)n(Cc2ccco2)c(O)c1C=NC1CCN(Cc2ccccc2)CC1	-1.56
30	CCc1c(C(=O)NN2C(=O)C3C4CCC(O4)C3C2=O)csc1C (configuration not stated)	0.04
31	Cc1nc2ccc(Cl)cn2c1P(=S)(N1CCOCC1)N1CCOCC1	0.74
32	COc1ccc(CCn2c(O)c(C=Nc3ccc(F)cc3)c(=O)[nH]c2=O)cc1OC	-0.66
33	N#CCCn1cc(C(=O)Nc2ccc([N+](=O)[O-])cc2)c(-c2ccccc2)n1	-0.98
34	CCCCCSc1cc(O)c(C(CNC)C(C)C)cc1OC (configuration not stated)	-2.93
35	O=C(COc1ccc(Cl)cc1)NC1CN2CCC1CC2 (configuration not stated)	2.22
36	CCOC(=O)C(O)(c1ccc(N(CC)S(=O)(=O)c2ccccc2)cc1)C(F)(F)F (configuration not stated)	-0.57
37	COc1ccc(-n2c(SC)nc3ccccc3c2=O)cc1	-0.42
38	Cc1ccc(-c2nn(Cc3ccccc3)cc2C=O)cc1	-1.19
39	O=C(NCC(c1cccnc1)N1CCN(c2ccc(F)cc2)CC1)Oc1ccccc1 (configuration not stated)	1.13
40	CC(NC(C)(C)C)C(=O)c1cccc(Cl)c1 (configuration not stated)	0.81&-0.83
41	CCN(CC)P(=S)(c1c(C)nc2ccccn12)c1c(C)nc2ccccn12	0.23
42	O=C1OC(c2ccc(Br)cc2)=N/C1=C\N1CC2CC(C1)c1cccc(=O)n1C2 (configuration not stated)	-1.29
43	O=C(CN1CCCCC1)c1ccc(OC(F)F)cc1	1.01
44	CN(C)P(=O)(NC(=O)c1cccn1C)N(C)C	0.41
45	CC(C)[C@H](NC(=O)N1C[C@H]2C[C@@H](C1)c1cccc(=O)n1C2)C(=O)Nc1ccccc1F	0.51
46	CCOC(=O)c1c(-n2c(C)cc(/C=C3\C(=O)NC(=O)N(C)C3=O)c2C)sc2c1CCCC2	1.36
47	CCCCn1c(O)c(C(CC)=NCCCN(C)C)c(=O)[nH]c1=O	-0.66
48	Cc1ccc(S(=O)(=O)N(C)C)cc1NC(=O)C(C)[N+]12CCN(CC1)CC2 (configuration not stated)	0.73
49	CCCCC(=O)N/N=C/c1c(O)n(CC)c(=S)[nH]c1=O	-1.23
50	CCOC(=O)c1c(/N=C/c2c(O)n(-c3ccccc3F)c(=S)[nH]c2=O)sc2c1CCCC2	-1.57
51	CN1C(=O)C(C2(C#N)CCCCC2)C(=O)N(C)C1=O	1.66
52	Cc1ccsc1C(=O)C1CCCN(Cc2ccccc2O)C1 (configuration not stated)	-3.39
53	COCCNC(=O)Cn1cc(C(=O)c2ccccc2F)c2ccccc21	-1.39
54	COC(=O)C1=C(c2ccccc2)C[C@@H]2CC[C@H]1N2C(=O)NCc1ccc(F)cc1	-0.9
55	COC(=O)C1=C(c2ccccc2)C[C@@H]2CC[C@H]1N2C(=O)NCCCOC(C)C	-0.13
56	Cc1cccn2c(=O)c3cc(C(=O)N4CCC5(CC4)OCCO5)n(C)c3nc12	2.69
57	O=C1N(c2ccc(Cl)cc2)C(c2cccnc2)N2CCCN12 (configuration not stated)	1.18
58	CN(Cc1ccccc1)Cc1ccccc1OC(=O)N(C)C	0.19
59	O=C(c1ccc(CNS(=O)(=O)c2ccc(Br)cc2)cc1)N1CCC2(CC1)OCCO2	-0.52
60	COC(=O)C1C2c3ccccc3OC1(C)N=c1s/c(=C/c3cnn(C)c3)c(=O)n12 (configuration not stated)	-0.4

3 entries drawn at random from the list so far:
item	SMILES	Kir21 block
41	CCN(CC)P(=S)(c1c(C)nc2ccccn12)c1c(C)nc2ccccn12	0.23
57	O=C1N(c2ccc(Cl)cc2)C(c2cccnc2)N2CCCN12 (configuration not stated)	1.18
15	CCC(=NCCCn1ccnc1)c1c(O)n(-c2ccc(OC)cc2)c(=O)[nH]c1=O	-1.49

The list continues.
item	SMILES	Kir21 block
61	Cc1ccccc1NC1=NCCCS1	1.57
62	C=CCn1c(O)c(/C=N/N2CCCCC2c2cccnc2)c(=O)[nH]c1=S (configuration not stated)	0.06
63	c1cc2c(cc1CCNC1CCCCCC1)OCO2	0.08
64	COc1ccc(CNC(=O)C(NC(C)=O)C(C)C)cc1OC (configuration not stated)	0

In the list so far, two have two or more sulfur atoms.
item	SMILES	Kir21 block
12	COC(=O)c1ccc(NC(=O)CSc2nc3ccc(N4C(=O)C5C6C=CC(C6)C5C4=O)cc3s2)cc1 (configuration not stated)	0.09
50	CCOC(=O)c1c(/N=C/c2c(O)n(-c3ccccc3F)c(=S)[nH]c2=O)sc2c1CCCC2	-1.57

Part of the list above in order of molar mass, rising.
item	SMILES	Kir21 block
63	c1cc2c(cc1CCNC1CCCCCC1)OCO2	0.08
64	COc1ccc(CNC(=O)C(NC(C)=O)C(C)C)cc1OC (configuration not stated)	0
57	O=C1N(c2ccc(Cl)cc2)C(c2cccnc2)N2CCCN12 (configuration not stated)	1.18
62	C=CCn1c(O)c(/C=N/N2CCCCC2c2cccnc2)c(=O)[nH]c1=S (configuration not stated)	0.06
59	O=C(c1ccc(CNS(=O)(=O)c2ccc(Br)cc2)cc1)N1CCC2(CC1)OCCO2	-0.52

The list is partial, and most or all hits are left out here.
